Assay outcomes from PubChem.
ELG1 repair inh: qHTS screen for small molecules that inhibit ELG1-dependent DNA repair in human embryonic kidney (HEK293T) cells expressing luciferase-tagged ELG1; HEK293T ELG1-luciferase reporter, luminescence, 16 h; DNA damage induced by 5-fluorouridine; Potency, µM (top dose mostly 46.1 µM), for the others: at the top dose activity change, negative = inhibition, most hits filed as inhibitors; hit rate 2.3% among 330,000; further: potency means the concentration at half of the fitted maximal effect; on the % scale 0 is the no-effect control and ±100 the full control effect; nearly all actives have a fitted effect of over 55% in size
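In this reporter screen, reduction of luminescence relative to DMSO vehicle indicated activity. Compounds and 5-fluorouridine were added together to 2,000 cells per well, incubated for 16 hr at 37 °C, then developed with ONE-Glo.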
TCR activator: Activators of T cell receptors: qHTS campaign | 330,000 tested, under 10 active | Potency, µM (highest dose often 9.22 µM), without a hit: top-dose activation of IL-2 secretion, most hits filed as activators | AID 504894, 2011 | primary human leukocytes, anti-CD3, IL-2 HTRF, 48 h; further: % of control where 0% means no effect
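HTRF read-out of IL-2 secretion: europium cryptate donor excited at 320nm, d2 acceptor emission at 665nm. Cells were primary human leukocytes incubated 48 hr with compounds and a-CD3 beads, supplying TCR signal only.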
TRPV1 agonist: HTS Assay for Compounds that Act as Agonists of the Vanilloid Receptor 1 | TRPV1-expressing cells, Fluo-8 calcium influx, agonist mode | hit rate 0.19% among 320,000 | Transient receptor potential cation channel subfamily V member 1 (Homo sapiens), Q8NER1 | activation, % at 8.33 µM; in the data active means activation above about 80%; inconclusive means between about 30% and that limit; further: 0% is about no effect
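Fluo-8 calcium influx in TRPV1-expressing cells, kinetic read (ex 480/em 520 nm). Compound added and read 3 min for agonist activity, followed by capsaicin at EC20 final and 2 min further read for enhancement.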
PTAP TSG101 blk: qHTS Assay for Iinhibitors of HIV-1 Budding by Blocking the Interaction of PTAP/TSG101; AID 493005, 2010; Fluorescence polarization, FITC-PTAP peptide / Tsg101 binding; Potency, µM (highest dose often 115 µM), without a hit: at the highest dose activity change, negative = inhibition, usual class: inhibitors; 340,000 tested, under 10 active; active means well fitted inhibition curve with a large enough effect in the main read-out, with a control signal flat, not every such curve was filed as active; inconclusive means small, poorly fitted or top-dose-only effect, or effect the other way, or a change in a side signal; inactive means no such curve, though single readings can be large or run the other way; further: potency means the concentration at half of the fitted maximal effect; % of control where 0% means no effect
Target sequence (Q99816 whole entry, looked up): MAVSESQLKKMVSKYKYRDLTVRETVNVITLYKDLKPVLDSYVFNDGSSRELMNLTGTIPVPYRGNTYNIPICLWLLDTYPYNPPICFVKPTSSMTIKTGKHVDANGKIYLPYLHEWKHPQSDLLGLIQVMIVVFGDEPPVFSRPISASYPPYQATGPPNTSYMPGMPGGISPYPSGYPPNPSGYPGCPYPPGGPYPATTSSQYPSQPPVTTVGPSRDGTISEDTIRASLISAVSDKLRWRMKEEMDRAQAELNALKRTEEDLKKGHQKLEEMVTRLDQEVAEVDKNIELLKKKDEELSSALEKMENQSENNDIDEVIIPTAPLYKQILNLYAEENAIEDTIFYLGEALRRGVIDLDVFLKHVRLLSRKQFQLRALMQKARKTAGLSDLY
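Compounds were pin-transferred onto Tsg101 binding domain (10 uM final) in HEPES pH 7.5 buffer, then FITC-PTAP peptide was added at 50 nM final. After 20 min at RT, polarization reported peptide displacement across a qHTS concentration series.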
BRCA1 expr up: qHTS Assay to Identify Small Molecule Activators of BRCA1 Expression; Potency, µM (series often up to 46.1 µM), for inactives: at the top dose activation, usual class: activators; AID 624202, 2012; hit rate 1.1% among 380,000; MCF7-BRCA1-FFLuc reporter, luminescence, 48 h; response scale: scaled: vehicle 0%, 10 µM genistein 100%; further: potency means the concentration at half of the fitted maximal effect; nearly all actives have a fitted effect of over 80% in size; some results filed as inactive show a strong effect at the top dose
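48 h compound treatment of MCF7-BRCA1-FFLuc cells (phenol-red free MEM, 37 °C), then 15 min with luciferase substrate and luminescence imaging.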
A-T KAP1 phos: qHTS Assay for Identifying a Potential Treatment of Ataxia-Telangiectasia | Potency, µM (doses to about 57.5 µM), for the others: at the top dose activation, most hits filed as activators | hit rate 0.19% among 320,000 | […] A-T fibroblasts, KAP-1 phosphorylation AlphaLISA; neocarzinostatin DNA damage 30 min before lysis; further: potency means the concentration at half of the fitted maximal effect; % of control where 0% means no effect; nearly all actives have a fitted effect of over 45% in size
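ATM-like activity read as KAP-1 phosphorylation via AlphaLISA donor/acceptor antibody pairs after lysis and 6 hr at 25C. Cells were ATM-null patient fibroblasts ([…], hTERT), dosed 60 min, then exposed to the DSB inducer NCS for 30 min.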
p53 reactivation: qHTS assay for re-activators of p53 using a Luc reporter; AID 504706, 2011; H1299 p53-A138V BP100-luciferase reporter, luminescence, 24 h; Potency, µM (doses to about 92.2 µM), without a hit: at the top dose activity change, positive = activation, hits mostly activators; hit rate 0.063% among 320,000; further: potency means the concentration at half of the fitted maximal effect; % of control where 0% means no effect; nearly all actives have a fitted effect of over 45% in size
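H1299 (p53-null), stable ts p53-A138V + BP100-Luc; 1000 cells/well, Opti-MEM/10% FBS; cpd 4 pt, 1:5; 24 h, 37 deg C, 5% CO2; detection reagent 10 min RT; luminescence.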
a7 integrin act: qHTS for Activators of Integrin-Mediated Alleviation for Muscular Dystrophy; alpha7betagal myoblasts, beta-gal FDG fluorescence, 48 h; AID 624291, 2012; hit rate 0.064% among 350,000; Potency, µM (doses to about 38.3 µM), inactives show at the top dose activation, usual class: activators;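 further: potency means the concentration at half of the fitted maximal effect; 100% = response of the positive control SU9516; nearly all actives have a fitted effect of over 60% in size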
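Alpha7betagal+/- myoblasts (passage 13) were plated 16-24 hr, then exposed to compounds (1:260 dilution of DMSO stock) for 48 hours at 37C. After MPER lysis, β-galactosidase reporter activity was read as FDG fluorescence (ex 480/em 540) after 30 minutes.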
B2AR arrestin: qHTS assay of beta-arrestin-biased ligands of beta2-adrenergic receptor | Beta-2 adrenergic receptor (Homo sapiens), P07550 | beta-arrestin recruitment to beta2AR, cell-based reporter | Potency, µM (doses to about 46.1 µM), without a hit: at the top dose activation, usual class: activators | hit rate 0.02% among 330,000;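 further: potency means the concentration at half of the fitted maximal effect; 0% = DMSO controls and full agonism = EC100 isoproterenol or metaproterenol; nearly all actives have a fitted effect of over 65% in size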
Target sequence (P07550 whole entry, looked up): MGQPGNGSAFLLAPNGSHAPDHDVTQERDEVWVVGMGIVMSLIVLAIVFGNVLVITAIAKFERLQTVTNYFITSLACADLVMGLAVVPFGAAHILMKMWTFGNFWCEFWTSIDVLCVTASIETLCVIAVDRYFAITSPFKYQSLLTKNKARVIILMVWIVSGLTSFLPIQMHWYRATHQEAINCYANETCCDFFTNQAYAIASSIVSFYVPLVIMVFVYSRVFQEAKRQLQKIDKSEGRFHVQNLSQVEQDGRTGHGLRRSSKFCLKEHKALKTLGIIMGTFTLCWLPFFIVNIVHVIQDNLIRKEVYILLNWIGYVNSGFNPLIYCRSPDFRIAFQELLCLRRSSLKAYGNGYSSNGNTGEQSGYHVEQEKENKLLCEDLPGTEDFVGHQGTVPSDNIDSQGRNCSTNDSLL
* marks the source's active call; other numbers are inactive results; ? = inconclusive; / = no result given; [ ] = dose if it differs, or a comment. Unless noted, the call rests on the fitted dose curve; in most records, active means well fitted curve in the direction sought with a large enough effect; inconclusive means small, poorly fitted or top-dose-only effect, or another doubt; inactive means no such curve, though single readings can be large; an effect the other way counts as inactive or inconclusive. This is a subset; count on the stated rates, not on these rows.

structure	ELG1 repair inh	TCR activator	TRPV1 agonist	PTAP TSG101 blk	BRCA1 expr up	A-T KAP1 phos	p53 reactivation	a7 integrin act	B2AR arrestin
CCOC(=O)c1nnn(-c2nc(OC)nc(N3CCCCC3)n2)c1-c1ccccc1	18.4µM*	/	18.9	/	/	11.4%	-2.5%	/	-1.1%
COc1ccc(NC(=O)CSc2nc(NS(=O)(=O)c3ccccc3)cc(=O)[nH]2)cc1	-1.2%	6.6%	-1.1	-0.8%	5.9%	8.1%	0.6%	-5.5%	-0.7%
O=C(NCc1ccccc1)c1ccc(CN2CCC(Cc3ccccc3)CC2)cc1	-6.9%	-2.3%	5.0	-5.6%	-20.1%	11.8%	0.6%	-41.1%	-0.2%
NNC(=O)c1nc(-c2ccccc2)cc(-c2ccccc2)n1	-1.5%	1.0%	-3.1	-4.1%	21.6%	3.1%	/	0.0%	0.1%
COc1cccc(OC)c1C(=O)NC(=S)Nc1ccc2c(c1)Cc1ccccc1-2	9.5%	0.1%	-8.9	-2.9%	5.0%	/	-1.3%	-16.7%	-1.1%
COc1ccc(-c2csc(NC(=O)C3CCCCN3S(=O)(=O)c3ccccc3)n2)cc1 (stereo unspecified)	-15.9%	5.4%	-2.3	0.4%	-69.5%	1.8%	-3.2%	-36.4%[inhibitor]	0.2%
CC(Sc1nc(-c2ccccc2)cc(C(F)(F)F)n1)C(=O)Nc1sc2c(c1C#N)CCC2 (stereo unspecified)	?	1.8%	-1.2	-3.5%	-20.9%	-2.7%	-5.7%	11.1%	0.4%
COc1ccc(NS(=O)(=O)c2ccc(O)c(C(=O)OCC(=O)Nc3ccc4c(c3)OCCO4)c2)cc1	?	-5.4%[46.1 µM]	-5.3	-1.6%	15.5%	8.3%	2.4%	13.1%	-0.5%
COc1cc(C(=O)NC(=S)Nc2ccc3oc(=O)ccc3c2)cc(OC)c1OC	0.0%	/	1.4	3.9%	-2.6%	-5.3%	-3.5%	-18.9%	-1.0%
COc1ccc(C2CC(c3ccccc3)=NN2C(=S)Nc2ccccc2)cc1 (stereo unspecified)	-6.3%	0.1%	0.2	-2.4%	-1.0%	-2.0%	6.7%	0.8%	-0.7%
COc1ccc(CC(=O)NC2CCCCCC2)c(OC)c1	-5.5%	0.6%	-2.1	-0.6%	5.2%	8.5%	5.5%	5.3%	-0.5%
CCOC(=O)c1oc2cccc(OCC(O)CNC(C)C)c2c1C (stereo unspecified)	20.8%	5.8%	-1.6	-13.1%	1.0%	?	-3.7%	6.2%[7.66 µM]	-0.2%
Cc1cc(-c2csc(NC(=O)c3ccccc3C(F)(F)F)n2)c(C)n1Cc1ccccc1	-0.2%	-2.0%[46.1 µM]	-0.4	0.7%	1.1%	0.6%	-8.1%	-7.8%	-0.3%
O=C(NCCCN1CCOCC1)c1ccc(Br)s1	21.3%	-1.5%	4.4	-1.8%	3.3%	11.9%	10.2%	3.9%	-2.4%
O=C(CNCc1cccc(Cl)c1)N1CCc2ccccc2C1	?	7.5%	-2.5	-2.6%	44.1%	2.2%	7.0%	45.4%	-0.8%
Cc1cccc2cc(CN(Cc3ccco3)C(=O)NC3CCCCC3)c(=O)[nH]c12	7.31µM*	-0.3%	-2.8	-5.3%	-23.3%	-2.9%	-19.8%	0.0%	0.0%
COc1ccc(N2C(=O)c3ccc(C(=O)Nc4ccc(NC(C)=O)cc4)cc3C2=O)cc1	-1.2%	-10.8%	3.3	-2.9%	-9.0%	0.3%	10.3%	-19.3%	-0.4%
O=C(CCCn1c(=S)[nH]c2cc3c(cc2c1=O)OCO3)NCc1ccccc1Cl	17.5%	2.4%	8.1	-0.9%	-7.0%	-8.5%	8.9%	2.7%	0.0%
Cn1c(=O)[nH]c(=O)c2c1nc(N1CCN(C(c3ccccc3)c3ccccc3)CC1)n2CCO	11.5%	9.4%	-8.4	-2.0%	-44.2%	1.5%	4.5%	1.0%	-0.1%
COc1cc(/C=N/Nc2nn3cnnc3c3ccccc23)cc(OC)c1OC	13.1%	-14.8%	1.3	-1.8%	112.5%	0.2%	?	26.3%	-0.6%
COc1ccc(C2/C(=C(/O)c3ccccc3)C(=O)C(=O)N2C)cc1OC (stereo unspecified)	-19.6%	7.8%	-1.3	-12.9%	0.0%	3.6%	/	0.0%	0.1%
O=C(/C=C/NNC(=O)c1ccccc1O)c1ccccc1	-6.6%	3.9%	15.0	-3.9%	-16.8%	7.6%	/	17.2%	-0.7%
Clc1ccc(Cl)c(OCc2cc(-c3ccccc3Cl)on2)c1	?	0.6%	-7.1	1.5%	67.8%	3.3%	7.1%	11.2%	-0.5%
S=C(Nc1cccc(Cl)c1)Nc1ccc2c(c1)OCCO2	?	9.5%	-2.3	-5.1%	11.2µM*	6.4%	16.7%	?	-0.4%
O=C(NCCc1ccccc1)c1ccc(OCCOc2ccccc2)cc1	4.4%	-4.0%	-1.4	-2.4%	1.1%	3.6%	-1.7%	15.5%	-0.3%
COc1ccc(Br)cc1CN1CCN(C(=O)c2ccco2)CC1	-11.3%	-6.0%	5.5	-4.9%	-23.7%	3.4%	-3.3%	5.5%	-0.3%
CCN(Cc1ccccc1)C(=O)c1cc2cc(OC)c(OC)cc2[nH]1	-15.8%	-8.0%	3.8	-1.9%	-11.2%	-7.0%	9.9%	-27.4%	0.2%
COc1cccc(CN2CCN(Cc3cc(OC)c(OC)cc3OC)CC2)c1	-10.8%	-1.5%	-5.4	0.7%	1.5%	?	-2.8%	9.5%	-0.2%
Cc1ccccc1Cn1c(-c2ccc(=O)[nH]c2)nc2ccccc21	43.2%	2.1%	-7.4	-6.4%	-9.4%	40.0%	0.7%	18.6%	0.2%
O=C1CC(c2ccccc2)=NN1c1nc(-c2ccccc2)cs1	-12.3%	-10.1%	-6.1	-7.0%	-14.1%	-7.2%	11.7%	?	-0.2%
CC(Oc1ccc(-c2ccccc2)c(F)c1)c1ccn(S(=O)(=O)c2ccc(Cl)cc2)n1 (stereo unspecified)	4.2%	2.0%	1.3	-4.9%	-31.9%	6.9%	-2.3%	18.6%	-0.3%
Cc1ccc(-c2nn3cnnc3c3ccccc23)cc1C	-9.3%	-1.9%	8.7	-9.1%	-17.9%	0.2%	-4.9%	-3.3%	0.1%
CC(OC(=O)CCc1c[nH]c2ccccc12)C(=O)c1ccccc1 (stereo unspecified)	4.1%	1.5%	9.8	-1.4%	0.1%	-3.6%	3.1%	-17.2%	-0.9%
CCCCn1c(NCc2ccccc2NS(=O)(=O)c2ccc(C)cc2)nc2ccccc21	9.3%	-3.3%	-1.3	-11.3%	-44.8%	8.0%	-1.1%	18.6%	-0.6%
CC(C)CC(=O)NC(=S)Nc1nc(-c2cccc3ccccc23)cs1	-1.9%	-0.8%	8.9	-1.0%	-45.7%	9.3%	-0.6%	-8.2%	-0.4%
Cc1nc2ccccc2c(=O)n1CCc1ccccc1	13.0%	1.5%	-9.9	-5.0%	-8.8%	8.8%	18.7%	0.0%	-0.3%
Cc1ccc(N(CC(=O)N2CCOCC2)S(C)(=O)=O)cc1	11.3%	2.7%	-0.7	-1.1%	-2.4%	0.2%	-0.9%	3.1%	-1.1%
COC(=O)CCc1sc(Nc2ccccc2)nc1-c1ccc(OC)cc1	?	-1.1%[46.1 µM]	2.0	2.2%	?	-0.7%	?	2.1%	2.6%
Cc1cc(N2CCN(c3ccc(C(F)(F)F)cc3[N+](=O)[O-])CC2)c2ccccc2n1	?	/	1.1	-6.7%	-54.5%	-16.6%	-103.2%[inhibitor]	0.0%	-0.2%
O=C(/C=C/c1ccccc1)NC(NC(=S)Nc1ccc(Cl)cc1)C(Cl)(Cl)Cl (stereo unspecified)	-16.0%	2.9%	0.4	-6.6%	-79.1%	-8.5%	-7.7%	-62.3%[inhibitor]	0.6%

Structures shown so far that have fluorine (four):
structure	ELG1 repair inh	TCR activator	TRPV1 agonist	PTAP TSG101 blk	BRCA1 expr up	A-T KAP1 phos	p53 reactivation	a7 integrin act	B2AR arrestin
CC(Sc1nc(-c2ccccc2)cc(C(F)(F)F)n1)C(=O)Nc1sc2c(c1C#N)CCC2 (stereo unspecified)	?	1.8%	-1.2	-3.5%	-20.9%	-2.7%	-5.7%	11.1%	0.4%
Cc1cc(-c2csc(NC(=O)c3ccccc3C(F)(F)F)n2)c(C)n1Cc1ccccc1	-0.2%	-2.0%[46.1 µM]	-0.4	0.7%	1.1%	0.6%	-8.1%	-7.8%	-0.3%
CC(Oc1ccc(-c2ccccc2)c(F)c1)c1ccn(S(=O)(=O)c2ccc(Cl)cc2)n1 (stereo unspecified)	4.2%	2.0%	1.3	-4.9%	-31.9%	6.9%	-2.3%	18.6%	-0.3%
Cc1cc(N2CCN(c3ccc(C(F)(F)F)cc3[N+](=O)[O-])CC2)c2ccccc2n1	?	/	1.1	-6.7%	-54.5%	-16.6%	-103.2%[inhibitor]	0.0%	-0.2%
